E coli growth: E. coli growth inhibition; Escherichia coli growth, OD600, 23 h; active compounds read low; OD600 absorbance (test concentration not listed); 330,000 compounds, 0.21% hits; AID 1053175;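 active means OD600 absorbance below the run mean of sample wells minus 3.6 SD, in any replicate, cut at about 0.56 in these data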;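 further: stock transfer was 300 nL into about 60 µL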
UCH37 inh: inhibitors of human deubiquitinating enzyme UCH37; purified proteasome/UCH37, Ub-AMC cleavage fluorescence; 330,000 compounds, 0.33% hits; AID 588478; inhibition, % (no concentration beside the values);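 active means mean of two replicates above 20%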;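 further: 0% = compound-free wells with enzyme and 100% = wells lacking proteasome; stock transfer was 100 nL into about 20 µL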
Target sequence (Q9Y5K5 whole entry, looked up): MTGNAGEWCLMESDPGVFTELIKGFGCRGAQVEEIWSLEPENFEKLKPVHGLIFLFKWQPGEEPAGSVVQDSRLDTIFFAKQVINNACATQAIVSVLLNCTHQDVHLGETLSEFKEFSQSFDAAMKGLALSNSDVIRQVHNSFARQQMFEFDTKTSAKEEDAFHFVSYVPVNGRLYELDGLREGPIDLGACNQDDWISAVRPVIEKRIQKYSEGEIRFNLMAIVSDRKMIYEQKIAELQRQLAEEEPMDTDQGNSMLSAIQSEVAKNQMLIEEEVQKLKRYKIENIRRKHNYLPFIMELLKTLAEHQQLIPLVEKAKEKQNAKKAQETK
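Signal – fluorescence, ex 355 nm, em 460 nm · System – Proteasome-bound UCH37 · Input – 0.15 nM proteasome as dispensed · Timing – 30 min preincubation with enzyme, 25 min cleavage at room temperature · Read-out basis – percent inhibition of cleavage signal versus uninhibited and no-proteasome wells · Medium – Tris-HCl pH 7.4 with ATP-MgCl2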
Active calls of the source: *. Some of the compounds tested, so the mix of outcomes need not match the whole.

SMILES | E coli growth | UCH37 inh
C=C(C)C1CC=C(C)C(=NNC(=O)COc2cccc3ccccc23)C1 (centres undefined) | 0.723 | 1.1
CC(=NNC(=O)CN1CCN(Cc2ccccc2Cl)CC1)c1ccco1 | 0.663 | 4.2
ON=Cc1cnc(N2CCN(c3ccccc3)CC2)s1 | 0.689 | 3.5
CCCOc1ccc(-c2c(C(=O)NN=Cc3cccs3)nnn2-c2nonc2N)cc1 | 0.672 | 2.9
COc1cc(NN=C(C)c2ccc(O)c(C)c2)nc(-c2ccccc2)n1 | 0.688 | -11.2
COc1cc(C=NNC(=O)CCN2CCN(Cc3ccccc3)CC2)cc(OC)c1OC | 0.712 | 3.2
CCCn1c(=O)c(C(=O)NN=Cc2ccccc2F)c(O)c2ccccc21 | 0.729 | 0.9
CC(=NOC(=O)NC(C)C)c1sc(-c2ccc(Cl)cc2)nc1C | 0.732 | 3.2
Cc1ccc(NC(=S)NN=Cc2cccn2Cc2ccccc2F)cc1 | 0.654 | 2.6
COc1ccc(NC(=O)C2CC(=O)N/C(=N/N=Cc3ccccc3)S2)cc1 (centres undefined) | 0.63 | 2.4
COc1cc(C=NNc2nc(C)cc(=O)[nH]2)ccc1OC(=O)c1cccnc1 | 0.712 | 4.3
COC(=O)C(=Nc1ccccc1)/C(C(=O)C(=O)N(C)c1ccccc1)=C(/O)c1ccccc1 | 0.654 | 7.6
CCOc1cccc(C=NNC(=O)CC2C(=O)NN=C2C)c1O (centres undefined) | 0.685 | -3.5
COc1ccc(C(C)=NNC(=O)CNC(=O)c2ccco2)cc1 | 0.656 | 2.2
CCN(CC)c1ccc(C=NNS(=O)(=O)c2cccc([N+](=O)[O-])c2)cc1 | 0.678 | 1.8
Cc1nc2ccccn2c1C(=O)NN=Cc1ccc(CNC(=O)C(=O)Nc2ccccc2)o1 | 0.683 | -0.9
CSc1ccc(C=NNC(=O)c2ccc(O)cc2)cc1 | 0.695 | -10.9
O=C(O)c1cc(NN=Cc2cccnc2)ccc1Cl | 0.642 | 17.5
O=C1CSC(=NN=Cc2ccccc2Cl)N1CC1CC1 | 0.67 | 6.4
COc1ccccc1NC(=O)CCC(=O)NN=C(C)c1ccc(C)cc1 | 0.663 | -0.6
Cc1ccc(OCCOc2cccc(C=NNC(N)=O)c2)cc1 | 0.665 | 1.2
Cc1ccccc1C=NNC(=O)c1ccccc1-n1cccc1 | 0.678 | 2.0
CC(=NNC(=O)c1ccc(CN2CCOCC2)cc1)c1ccc(NC(=O)c2ccccc2)cc1 | 0.662 | -9.4
C(=CC=Nc1ccccc1)C=CNc1ccccc1 | 0.703 | -2.4
CC(=NNC(=O)CNc1cccc(C(F)(F)F)c1)c1ccc(Br)cc1 | 0.713 | -4.0
CCOc1cc(C=NNC(=O)c2nnn(-c3nonc3N)c2C)ccc1OCc1ccc(F)cc1 | 0.711 | -160.5
CCCCNC(=S)NN=Cc1cc(C)ccc1C | 0.677 | 2.9
COc1cc(C(=O)NN=CC2CC=CCC2)cc(OC)c1OC (centres undefined) | 0.699 | 5.1
COc1cc(C=NNC(=S)NC2CC3CCC2C3)ccc1O (centres undefined) | 0.634 | 5.3
Cc1cc(C)nc(-n2nc(C)cc2NC(=O)c2cccc(S(=O)(=O)N3CCOCC3)c2)n1 | 0.682 | -0.2
CC(C)(C)OC(=O)N1CCC[C@H]1C(=O)NN=Cc1ccc2ncccc2c1 | 0.614 | 1.5
COc1ccc(C=NNc2cc(=O)n(C)c(=O)n2C)cc1OC | 0.68 | -23.0
COc1cc(C=NO)ccc1OCc1ccc(C(=O)O)cc1 | 0.73 | 5.4
CCN(CC)c1ccc(C=NNc2nc3ccccc3[nH]2)c(O)c1 | 0.628 | 1.3
CCn1c(SCC(=O)NN=Cc2ccc(OC)c(OC)c2)nc2ccccc21 | 0.697 | 7.6
O=C(COc1ccc(C=NNC(=O)C(=O)N2CCCCCC2)cc1)Nc1ccccc1Cl | 0.659 | 0.6
Cc1c2n(c3ccccc13)CCC2=NO | 0.655 | -6.1
NC(CSc1ncccc1C(F)(F)F)=NO | 0.628 | 2.7
COc1cc(C=NNC(=O)c2nc(C)cc(C)n2)ccc1O | 0.702 | 5.6
CCCCC(CCCC)=NN=Cc1c(O)n(CC)c2cc(C3=NNC(=O)CC3)ccc12 | 0.846 | -6.2
COc1ccc(C=NNC(=O)c2[nH]c3ccc(C)cc3c2-c2ccccc2)c(C(=O)O)c1OC | 0.671 | 3.6
Nc1nnnn1N=Cc1cc(Cl)cc(Cl)c1OCc1ccc(Cl)cc1Cl | 0.772 | -15.6
COc1ccc(C=NNC(=O)CSc2ccccn2)cc1OC | 0.631 | 5.4
C=CCn1c(COc2ccccc2)nnc1SC(C)C(=O)NN=Cc1cc(Cl)ccc1O (centres undefined) | 0.738 | -0.7
CCN1C[C@@H]2[C@@H]3C(=O)N(Cc4ccccc4)C(=O)[C@@H]3[C@](C)(C(=O)OC)N2C1=NC | 0.702 | 4.4
CC(=NNC(=O)CNC(=O)c1cccnc1)c1ccc(Cl)c(Cl)c1 | 0.689 | 5.9
CCC1SC(=NN=Cc2ccco2)N(c2ccc(F)cc2)C1=O (centres undefined) | 0.719 | 2.9
Cc1ccc(S(=O)(=O)NN=Cc2ccc(C#N)cc2)cc1 | 0.643 | 11.9
O=C(NN=CC1CC2CCC1C2)c1ccc2c(c1)OCO2 (centres undefined) | 0.703 | 0.5
Nc1nonc1C(=O)NN=Cc1cc2c(cc1Cl)OCO2 | 0.71 | 0.6
O=C(NN=Cc1c[nH]c2ccccc12)c1cc(-c2cccc3ccccc23)n[nH]1 | 0.704 | -8.1
CON=C(CNC(=O)c1cccc(Cl)c1)c1ccc(Cl)cc1 | 0.733 | -4.0
Cc1ccc(C(=O)NN=C/C=C/c2ccccc2)o1 | 0.616 | 21.1*
CCOC(=O)C(C#N)=NNc1ccc(S(=O)(=O)N2CCc3ccccc32)cc1 | 0.721 | 4.9
COc1ccc(CCC(=NO)C2(O)CCCCC2)cc1 | 0.707 | 5.9
Cc1cc(C(=O)NN=Cc2cccc([N+](=O)[O-])c2)c2ccccc2n1 | 0.638 | 2.1
COc1ccc(C=NNC(=O)CCC(=O)Nc2ccc(Br)cc2)c(OC)c1 | 0.678 | 3.2
C/C(C=NNc1ccc2nncn2n1)=C\c1ccccc1 | 0.635 | 6.9
CCn1ncc(C=NNC(=O)c2cc(Cl)ccc2OC)c1C | 0.672 | 5.6
CCc1nnc(NN=Cc2ccc(N3CCC(C)CC3)c([N+](=O)[O-])c2)n1N | 0.71 | 9.9
(further entries)
SMILES | E coli growth | UCH37 inh
O=c1c(=Cc2cccc3ccccc23)sc2ncnn12 | 0.632 | 2.5
COc1cc(C(=O)NN=C(C)c2ccc(NC(=O)Cc3ccccc3)cc2)ccc1O | 0.703 | 4.6
O=C(CSC1CN(C(c2ccccc2)c2ccccc2)C1)NN=Cc1ccccc1 | 0.663 | 5.7
CC(C)NC(=S)NN=Cc1cc(Br)ccc1O | 0.638 | -20.8
O=C(C[C@H]1C[C@H](C(=O)N2CCCCC2)[C@@]2(CCc3ccccc3)c3[nH]c4ccc(Cl)cc4c3CCN2C1=O)NCCN1CCOCC1 | 0.728 | 2.0
CCOc1ccc(S(=O)(=O)Nc2ccc(C(=O)NN=C(C)c3ccc(-n4ccnc4)cc3)cc2)cc1 | 0.702 | -1.0
COc1ccc(C(=O)NN=C2SCC(=O)N2Cc2ccc3c(c2)OCO3)cc1OC | 0.655 | 1.7
Cn1ccsc1=NC(=O)Nc1cccc(Cl)c1 | 0.71 | 3.5
COc1ccc(C(C)=NN2C(=O)c3ccccc3NC2c2ccc(O)c(OC)c2)cc1 (centres undefined) | 0.701 | -3.8
COc1cccc2cccc(C=Nn3cnnc3)c12 | 0.68 | -108.1
CC(C)(C)c1ccc(C=NNC(=S)NCc2ccccc2)cc1 | 0.725 | -0.3
CC(=O)Nc1cccc(C(C)=NNC(=O)c2c(-c3ccccc3Cl)noc2C)c1 | 0.682 | 3.7
COc1ccc(C=NNC(=O)Cn2ccnc2C)cc1OC | 0.663 | 1.6
Oc1ccc(C=NN2CCN(C3c4ccccc4-c4ccccc43)CC2)cc1O | 0.691 | 2.8
CN(C)C=Nc1nc2nccc(-c3ccccn3)n2n1 | 0.691 | -355.6
Cc1ccc(S(=O)(=O)N=Cc2cc(Br)ccc2O)cc1 | 0.625 | 4.5
Cc1ccsc1C=NNC(=O)C1C(=O)NCC1c1ccccc1 (centres undefined) | 0.677 | 3.7
COc1cc(C=NNC(=O)COc2c(C)cc([N+](=O)[O-])cc2C)ccc1OC(=O)c1ccccc1 | 0.691 | 1.2
COc1cc(C=NNC(=O)c2cc(-c3ccccc3C)nc3ccccc23)cc(OC)c1O | 0.666 | 8.0
Cn1cccc1C=NNC(=O)C1COc2ccccc2O1 (centres undefined) | 0.731 | 5.9
COc1ccc(N(CC(=O)NN=Cc2cccc3c2OCCO3)S(=O)(=O)c2ccc(NC(C)=O)cc2)cc1 | 0.757 | -6.3
CN(N=Cc1ccncc1)c1cnn(-c2ccc(F)c(Cl)c2)c(=O)c1Cl | 0.709 | 0.2
Cc1c(C=NNC(=O)C(C)(C)Oc2ccc(Cl)cc2)cnn1C | 0.661 | -1.8
CC(=NNC(=O)c1ccccc1)c1ccc(NC(=O)c2cccs2)cc1 | 0.667 | 0.6
NC(=O)NN=Cc1c(Sc2nnnn2-c2ccccc2)nc2ccccn2c1=O | 0.715 | -3.5
O=C(NN=Cc1ccncc1)c1ccc(OCc2ccccc2)cc1 | 0.673 | 1.3
COc1ccc2ccccc2c1C=Nn1c(C)cc(C)c(C(N)=O)c1=O | 0.622 | 12.4
COCC(=O)NN=C(C)CC(=O)Nc1ccccc1C(N)=O | 0.673 | -2.4
CCN(CC)c1ccc(C=NNC(=O)c2ccc(Br)o2)cc1 | 0.683 | -13.7
O=C(NN=C1CCSC1)c1cc(Br)ccc1O | 0.644 | -13.2
CNC(=S)NN=Cc1c(C)nn(-c2cccc(Cl)c2)c1Cl | 0.712 | 2.9
N#Cc1ccc(C=NNC(=O)c2cc(-c3cccs3)nc3ccccc23)cc1 | 0.707 | -42.4
CC=NNC(=O)CCNC(=O)c1ccccc1 | 0.702 | 6.7
O=C(NN=Cc1ccc(OC(=O)c2ccco2)cc1)c1ccc(Cl)cc1 | 0.679 | 1.4
Cc1[nH]n(-c2ccccc2)c(=O)c1C=NNC(=O)c1ccc(O)cc1O | 0.645 | -94.2
CC(C)Oc1ccc(C=NNC(=O)c2ccc(N(Cc3ccccc3)S(C)(=O)=O)cc2)cc1 | 0.656 | 0.9
CCOc1ccc(C=NNC(=O)c2csc(C)c2C)c(OCC)c1 | 0.679 | 0.8
COc1ccc(C=NNC(=O)c2c(-c3ccccc3)noc2C)cc1 | 0.722 | 2.4
Cc1cc([N+](=O)[O-])cc(C=NNC(=O)C2COc3ccccc3O2)c1O (centres undefined) | 0.644 | 9.0
Cc1cc([N+](=O)[O-])c(C)cc1-c1ccc(C=NNC(=O)c2cccnc2)o1 | 0.717 | 9.4
COc1ccc(C=NNc2ncc(C(F)(F)F)cc2Cl)cc1OC | 0.759 | -9.9
O=C(Oc1ccc(C=Nn2cnnc2)cc1)c1cccc([N+](=O)[O-])c1 | 0.644 | 0.9
Cc1cc(C=NO)c(C)n1-c1cccc(Cl)c1 | 0.655 | 3.4
COc1cccc2c(NN=Cc3ccccc3)cc(C)nc12 | 0.651 | -13.6
CCN1CCCCC(=NO)C(=NO)CCCC1 | 0.681 | -0.5
COc1ccc(C=NNS(=O)(=O)c2ccccc2)cc1OS(=O)(=O)c1ccccc1 | 0.732 | 8.8
COc1ccccc1/C=C/C=Nn1c(-c2ccc(Cl)cc2Cl)n[nH]c1=S | 0.65 | 9.7
CC1CCCCC1=NNC(=S)NCCc1ccccc1 (centres undefined) | 0.686 | 2.3
C=CCc1cc(C=Nn2cnnc2)cc(OCC)c1O | 0.668 | -0.8
Cc1ccccc1OCC(=O)ON=C(N)Cc1ccc(Cl)cc1 | 0.717 | 44.1*
O=C(CNC(=O)c1ccccc1Br)NN=Cc1cc([N+](=O)[O-])cc(Br)c1O | 0.596 | 13.9

Screening results (PubChem BioAssay)
